PINK1 modulator: changes PINK1 expression; Potency, µM (highest dose often 76.6 µM), inactives show top-dose activation (PINK1 increase), hits mostly activators; PINK1 immunofluorescence, high-content cytometry, 24 h; 410,000 tested, 0.2% active; active = well fitted activation curve with a large enough effect; inconclusive = small, poorly fitted or top-dose-only effect; inactive = flat fitted curve, though single readings scatter; cell line not stated here;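 note: potency is the fitted concentration of half-maximal effect; % of control where 0% means no effect; nearly all actives have a fitted effect of over 65% in size; a mitochondrial uncoupler was the plate control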
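Stable cell line, 250 cells/well, 12 h attachment; compounds pinned at 5 concentrations, 24 h; CCCP control. Fixed with nuclear dye, primary antibodies 12 h at 10 degrees C, secondary plus cell stain; laser-scanning cytometer read.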
ClpP mod: qHTS Assay for Activators of ClpP; ATP-dependent Clp protease proteolytic subunit (Bacillus subtilis (strain 168)), P80244; purified B. subtilis ClpP, FRET peptide cleavage, 20 min; Potency, µM (series often up to 57.5 µM), for the others: top-dose activity change, negative = active; 340,000 tested, 1.9% active; active = well fitted falling curve with a large enough effect; inconclusive = small, poorly fitted or top-dose-only effect; inactive = no such curve, though single readings can be large or run the other way; note: potency is the fitted concentration of half-maximal effect; the source files actives as falling curves though it sought activators and does not explain the sign; nearly all actives have a fitted effect of over 65% in size; many hits overshoot -100%
Target sequence (P80244 whole entry, looked up): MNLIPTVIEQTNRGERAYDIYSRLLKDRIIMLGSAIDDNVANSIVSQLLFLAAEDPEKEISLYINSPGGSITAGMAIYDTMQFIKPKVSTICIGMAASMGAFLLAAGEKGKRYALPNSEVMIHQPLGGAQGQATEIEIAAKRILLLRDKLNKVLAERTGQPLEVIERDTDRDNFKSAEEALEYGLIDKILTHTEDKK
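Purified B. subtilis ClpP, 10 microg/mL final in Tris/HCl pH8 with KCl, BSA, glycerol and Tween-20, cleaved an Abz/nitrotyrosine-quenched decapeptide. Fluorescence (ex 320, em 430) was read at 0 and 20 min at room temperature. Delta was normalized to 5.8 microM ADEP and DMSO/no-enzyme controls.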
TRPV1 PAM: potentiators of human vanilloid receptor 1 (TRPV1); Q8NER1; TRPV1-expressing cells, Fluo-8 calcium influx, capsaicin EC20 potentiation; host cell line not named in the record; control for the full effect not named in the record; potentiation, % at 8.33 µM; 320,000 tested, 0.02% active; AID 540277; active means potentiation above 80%; inconclusive means 30% to 80%; inactive means below 30%; note: 0% is about no effect
Target sequence (Q8NER1 whole entry, looked up): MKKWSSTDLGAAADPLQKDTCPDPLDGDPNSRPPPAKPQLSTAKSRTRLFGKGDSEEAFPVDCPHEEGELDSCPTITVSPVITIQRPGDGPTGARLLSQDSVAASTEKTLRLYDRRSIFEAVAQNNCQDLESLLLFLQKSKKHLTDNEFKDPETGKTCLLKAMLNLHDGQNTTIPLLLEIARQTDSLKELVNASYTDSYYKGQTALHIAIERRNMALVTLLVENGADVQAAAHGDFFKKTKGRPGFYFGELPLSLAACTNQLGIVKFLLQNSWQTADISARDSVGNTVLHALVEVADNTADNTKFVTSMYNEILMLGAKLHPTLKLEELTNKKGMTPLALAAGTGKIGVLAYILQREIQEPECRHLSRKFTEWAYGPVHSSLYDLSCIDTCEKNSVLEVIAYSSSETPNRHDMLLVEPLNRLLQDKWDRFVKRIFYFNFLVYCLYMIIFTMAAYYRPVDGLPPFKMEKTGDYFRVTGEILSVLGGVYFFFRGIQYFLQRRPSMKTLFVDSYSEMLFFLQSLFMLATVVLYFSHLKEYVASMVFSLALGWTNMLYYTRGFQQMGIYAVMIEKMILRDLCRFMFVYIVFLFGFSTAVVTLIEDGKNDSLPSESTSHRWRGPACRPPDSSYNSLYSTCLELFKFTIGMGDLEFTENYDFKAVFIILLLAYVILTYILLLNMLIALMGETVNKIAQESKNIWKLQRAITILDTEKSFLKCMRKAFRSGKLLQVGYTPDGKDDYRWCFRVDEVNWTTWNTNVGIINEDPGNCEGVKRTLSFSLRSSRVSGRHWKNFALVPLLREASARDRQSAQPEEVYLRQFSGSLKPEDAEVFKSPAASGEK
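Cells expressing TRPV1 were dye-loaded with Fluo-8 and read kinetically: 10 s baseline, 3 min after compound (agonist portion), then 2 min after EC20 capsaicin (allosteric enhancer portion). Calcium-bound dye fluorescence at 480/520 nm.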
Menin MLL FP FL: menin-MLL binding inhibition, fluorescein peptide; Fluorescence polarization, fluorescein-MLL peptide displacement from menin; FP activity change, % at 61.4 µM; 290,000 tested, under 10 active; AID 1766; inconclusive = falling polarisation curve, or a change in total fluorescence; inactive = total fluorescence flat and polarisation flat or rising; no compound was filed as active; the % refers to the polarisation; negative = inhibition;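 note: % of control where 0% means no effect; inhibitors lower the polarisation; unlabelled MLL peptide was the positive control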
Sfp PPTase inh: blocks B. subtilis Sfp PPTase activity; Biochemical Sfp PPTase activity, qHTS; Potency, µM, for inactives: max response, negative = inhibition, actives largely listed as inhibitors; 310,000 tested, 3.5% active; Q9F4F7; AID 1490; active = well fitted inhibition curve with a large enough effect; inconclusive = small, poorly fitted or top-dose-only effect, or another doubt; inactive = no such curve, though single readings can be large or run the other way;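 note: the enzyme is Sfp with the accession as filed and its product quenches rhodamine fluorescence; potency is the fitted concentration of half-maximal effect; 0% = enzyme reaction without inhibitor and -100% = no enzyme wells; top concentration of the series not given in the record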
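Step 1, compound plus 15 nM Sfp-PPTase, 15 min, room temperature. Step 2, add rhodamine-CoA (5 uM) and BHQ-2-YbbR (12.5 uM). Step 3, read 525/598 nm fluorescence at 0 and 30 min.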
TRPML1 inh: blocks the human TRPML1 channel. 390,000 tested, 0.02% active. activity change, negative = inhibition, % (test concentration not listed). TRPML1-inducible cells, Ca2+ dye fluorescence, FDSS; stronger effect = lower value; inhibition of EC80 agonist-evoked calcium signal. Q9GZU1; in the data active means activity change below about -50%; inconclusive means about -30% to -50%; inactive means above about -30%;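 note: stimulus is agonist 54-4 at its EC80 concentration; % is set by controls: 0 for no effect and ±100 for the full control effect; compound concentration not given in the record; the text of the record puts the active cut at -80%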
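TRPML1-DL cells, Tet-induced overnight (~16 h, 37 °C) at 1,500 cells/well, were loaded with Ca8 no-wash dye plus quencher for 45-90 min at room temperature. Compounds were pinned during FDSS kinetic reading; agonist 54-4 at EC80 (4 uM final) then added.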
TRPML1 ag: human mucolipin-1 channel agonism. Q9GZU1. TRPML1-expressing cells, Ca2+ dye fluorescence, FDSS; host cell line not named in the record; reference of the full effect not given here. activation, % (test concentration not listed). 410,000 tested, 0.12% active. AID 624414; in the data active = activation above about 50%; inconclusive = about 30% to 50%; inactive = below about 30%; note: 0% is about no effect; the text of the record puts the active cut at 80%
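Tet-induced TRPML1-DL cells, 1,500 per well, cultured overnight, were loaded with a no-wash Ca2+ dye for 45–90 min. Calcium fluorescence was recorded on the FDSS for 110 s after compound addition, before the EC80 agonist (4 uM 54-4) was added.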
Numbers without * were called inactive; ? = inconclusive; nt = no result given; [ ] = dose if it differs, or a comment.

The first 3 compounds, ahead of the listing:
Every second line gives: PINK1 modulator	ClpP mod	TRPV1 PAM	Menin MLL FP FL	Sfp PPTase inh	TRPML1 inh	TRPML1 ag
Cc1c(-c2ccccc2)n(-c2ccc(Cl)cc2)c2nc3c(c(=O)n(C)c(=O)n3C)n12
  0.1%	0.5%	nt	nt	nt	25	0.4
CCOC(=O)COc1coc(CN2CCN(c3cccc(Cl)c3)CC2)cc1=O
  1.0%	0.5%	-12	nt	1%	-8	-1.2
COC(=O)c1cc(NS(=O)(=O)c2ccc(NCc3cccnc3)c([N+](=O)[O-])c2)cc(C(=O)OC)c1
  ?	28µM*	1	4.8	3%	5	1.7

The whole of this part (from the top)
Every second line gives: PINK1 modulator	ClpP mod	TRPV1 PAM	Menin MLL FP FL	Sfp PPTase inh	TRPML1 inh	TRPML1 ag
Cc1c(-c2ccccc2)n(-c2ccc(Cl)cc2)c2nc3c(c(=O)n(C)c(=O)n3C)n12
  0.1%	0.5%	nt	nt	nt	25	0.4
CCOC(=O)COc1coc(CN2CCN(c3cccc(Cl)c3)CC2)cc1=O
  1.0%	0.5%	-12	nt	1%	-8	-1.2
COC(=O)c1cc(NS(=O)(=O)c2ccc(NCc3cccnc3)c([N+](=O)[O-])c2)cc(C(=O)OC)c1
  ?	28µM*	1	4.8	3%	5	1.7
O=S(=O)(c1ccc(F)c(F)c1)N1CCN(c2ncccn2)CC1
  1.1%	-1.0%	3	1.9	18%	4	0.2
CC1=CC2(C)NC(=O)C(C)C12 (centres undefined)
  1.3%	-0.4%	nt	nt	nt	1	0.1
COc1ccccc1CNC(=O)c1ccc(OCC2CCCO2)cc1 (centres undefined)
  0.1%	-3.0%	2	0.1	10%	-8	2.0
CCCCNCc1cc2ccccc2o1
  0.4%	0.6%	-1	7.1	3%	nt	nt
CC(C)(C)c1ccc(C(=O)NCC(=O)OCN2C(=O)c3ccccc3C2=O)cc1
  0.7%	1.0%	7	1.8	6%	-13	-0.1
S=C(NCc1ccccc1)N1CCN(Cc2ccc3c(c2)OCO3)CC1
  -0.9%	nt	-19	-4.3	9%	-15	0.2
CC(=O)c1cc2c(cc1NC(=O)c1ccc(-n3nc(C)cc3C)cc1)OCO2
  13%	3.6%	nt	nt	nt	26	2.0
O=C(Nc1ccc(F)cc1)N(CCCN1CCOCC1)Cc1cc2cc3c(cc2[nH]c1=O)OCO3
  2.5%	?	3	2.5	-9%	8	-0.9
CC(C)C(NC(=O)c1ccccc1)C(=O)OCn1nnc2ccccc2c1=O (centres undefined)
  1.4%	-0.4%	0	nt	nt	0	0.5
O=C(CN1C(=O)/C(=C2\SC(=S)N(C3CCS(=O)(=O)C3)C2=O)c2ccccc21)Nc1ccc(F)cc1 (centres undefined)
  0.9%	nt	-8	5.3	-24%	-6	0.5
CCOC(=O)C(C)On1c(-n2nc(C)cc2C)nc2ccccc2c1=O (centres undefined)
  -0.3%	-1.2%	-2	-6.0	-9%	nt	nt
CCOC(=O)Cc1csc(NC(=O)CSc2ccc(Br)cc2)n1
  0.4%	1.1%	-2	1.0	12%	3	2.5

(listing goes on)
Every second line gives: PINK1 modulator	ClpP mod	TRPV1 PAM	Menin MLL FP FL	Sfp PPTase inh	TRPML1 inh	TRPML1 ag
COc1cc(C2/C(=C(\O)c3cc(C)ccc3C)C(=O)C(=O)N2CCN(C)C)ccc1O (centres undefined)
  -0.2%	-1.0%	-11	-1.6	-9%	-3	-0.1
COC(=O)c1ccc(CSc2nc3sc4c(c3c(=O)n2C)CCCC4)o1
  0.0%[38.3 µM]	-0.1%	17	-0.3	-7%	-13	-0.5
Cc1cc(C)c(C)c(S(=O)(=O)N2CCC(C(=O)NCCCN3CCOCC3)CC2)c1C
  2.2%	-0.8%	-2	nt	nt	2	0.7
Cc1ccc(SCCNC(=O)C(C)C)cc1
  -2.4%[38.3 µM]	1.0%	-5	-0.3	21%	-16	-0.1
COc1ccc(/C=N/NC(=O)c2ccc(Cl)cc2)cc1COC(C)=O
  11%	25µM*	0	3.6	-6%	-5	1.2
COc1ccc(S(=O)(=O)NC(=O)C2(C)CCN2C(=O)COc2ccc(Cl)cc2)cc1 (centres undefined)
  0.1%	-0.2%	nt	nt	nt	nt	0.2
NNc1cc([N+](=O)[O-])cc2c1C(=O)N(Cc1ccccc1)S2=O (centres undefined)
  2.4%	-2.7%	-11	-4.5	22µM*	20	1.7
Cc1ccc2nccc(C(=O)N3CCCC(Nc4ccc(C)c(C)c4)C3)c2c1 (centres undefined)
  -0.2%	0.3%	2	nt	-2%	9	3.3
CCCCN(C(=O)C1CC(=O)N(CCc2ccc(OC)c(OC)c2)C1)c1c(N)n(CCCC)c(=O)[nH]c1=O (centres undefined)
  4.6%	nt	-19	nt	nt	21	1.5
COc1ccc2nc(N3C(=O)/C(=C/c4ccc(Cl)cc4)NC3=S)sc2c1
  22µM*	1.0%	29	?	-6%	7	2.2
CCC(CC)C(=O)Nc1ccc2nc(SCC(=O)N3c4ccccc4CC3C)sc2c1 (centres undefined)
  0.4%	1.6%	nt	nt	nt	-4	0.1
COc1ccc(CCNC2CC(=O)N(N(C)C)C2=O)cc1OC (centres undefined)
  -0.6%	nt	-3	2.3	1%	16	-0.4
O=S(=O)(c1ccccc1)N1CCN(C(c2ccccc2)c2ccc(OC(F)(F)F)cc2)CC1 (centres undefined)
  0.8%	-1.4%	6	1.3	11%	21	0.8
Cc1ccccc1NC(=S)N(Cc1cccnc1)Cc1ccccc1Cl
  2.2%	nt	-6	0.3	6%	1	0.3
Fc1cccc(-n2ncc3c2ncn2nc(COc4ccc(Cl)cc4)nc32)c1
  0.9%	-1.4%	nt	nt	nt	-10	0.3

(continued)
Every second line gives: PINK1 modulator	ClpP mod	TRPV1 PAM	Menin MLL FP FL	Sfp PPTase inh	TRPML1 inh	TRPML1 ag
COc1ccc(OC)c(C2C(C(=O)c3ccc(C)o3)=C(O)C(=O)N2c2cc(C)on2)c1 (centres undefined)
  1.9%	-0.4%	5	nt	?	2	0.4
Cc1c(C)n(Cc2ccccc2)c2ncnc(NCCN(C)C)c12
  -0.1%	-11%	7	-4.8	10%	-5	0.3
O=C(NCCn1cc(SCc2ccc(F)cc2)c2ccccc21)c1ccccc1F
  7.4%	-2.1%	0	-0.6	-15%	1	-0.2
CCc1nc2ccccc2c(C(=O)OCC(=O)C(C)(C)C)c1C
  1.8%	nt	-15	0.9	4%	-3	0.7
Cc1cc(C)c2[nH]c(=O)c(CN(CC3CCCO3)C(=O)C3CCCO3)cc2c1 (centres undefined)
  -2.0%	?	5	-0.4	-10%	3	-0.4
COc1ccc(NC(=O)N(C)C[C@H]2Oc3ccc(NS(=O)(=O)c4ccc(F)cc4)cc3C(=O)N([C@H](C)CO)C[C@@H]2C)cc1
  0.0%	-0.9%	nt	nt	nt	-13	0.2
Cc1ccc2nc(-c3ccco3)c(Nc3ccc4c(c3)OCCO4)n2c1
  2.0%	4.1%	nt	nt	nt	29	1.6
N#Cc1ccc(C(=O)N2CCN(C(=O)C3CCCO3)CC2)cc1 (centres undefined)
  -0.2%	0.4%	3	nt	nt	-9	0.3
CCOc1cc(C(=O)NCCc2csc3nc(-c4ccccc4F)nn23)cc(OCC)c1OCC
  1.2%	-2.9%	nt	nt	nt	-6	2.6
N#CCSc1nnc(Cc2cccc3ccccc23)n1C1CCCCC1
  -0.7%	0.1%	9	1.6	-2%	68	0.3
Cc1ccsc1CN(C)CC(=O)NCC(=O)Nc1ccc(F)c(F)c1F
  -0.2%	0.4%	nt	nt	nt	1	-0.6
CCn1c(=NC(=O)c2cccc(N3C(=O)CCC3=O)c2)sc2c(C)ccc(OC)c21
  -2.5%	nt	4	0.8	5%	35	1.9
CCc1nc(CNC(=O)C2CCC(=O)N(CCc3cccc(F)c3)C2)no1 (centres undefined)
  0.3%	-2.8%	26	nt	0%	1	0.5
CN(C(=O)COC(=O)CSc1ccc([N+](=O)[O-])cc1)c1ccccc1
  1.8%	-1.7%	0	nt	nt	28	2.2
COc1ccc(CCNC(=O)CN2C(=O)NC(Cc3c[nH]c4ccccc34)C2=O)cc1 (centres undefined)
  -0.4%	nt	5	0.5	9%	-4	0.6

More compounds
Every second line gives: PINK1 modulator	ClpP mod	TRPV1 PAM	Menin MLL FP FL	Sfp PPTase inh	TRPML1 inh	TRPML1 ag
Cc1nn(-c2ccccc2)c(C)c1/C=N/NC(=O)c1cc(C23CC4CC(CC(C4)C2)C3)[nH]n1
  -1.0%	-4.7%	19	6.5	17%	8	2.7
Cc1cc(C)c(C(=O)N2CCCC(CNS(=O)(=O)c3cccs3)C2)o1 (centres undefined)
  -1.0%	0.5%	3	nt	5%	7	-0.6
O=C(O)C1C2OC(C(Br)C2Br)C1C(=O)O (centres undefined)
  -3.7%	nt	nt	nt	nt	26	-0.7
COc1ccc(CNC(=O)c2cc(-c3ccc(Cl)cc3)n[nH]2)cc1
  1.0%	-0.6%	nt	nt	nt	34	0.7
Cc1ccc(C)c(OCCCCCn2ccnc2)c1
  1.3%[38.3 µM]	0.3%	0	1.8	-10%	34	2.2
Cc1cc(C)c(NC2=NS(=O)(=O)c3ccccc32)c(C)c1
  -0.8%[38.3 µM]	-0.3%	5	1.8	18%	8	-0.1
COc1ccc(OCC(=O)N2CCN(c3nnc(-c4ccccc4)c4ccccc34)CC2)cc1
  4.5%[38.3 µM]	0.3%	-7	7.1	3%	9	1.2
CC(C)C(Cl)=NOC(=O)Nc1ccc(F)cc1
  -1.5%	-0.7%	nt	nt	nt	-8	0.0
COc1ccc(S(=O)(=O)N(CC(=O)N2CCN(C)CC2)C2CCCCC2)cc1OC
  0.7%	-0.9%	24	-0.5	-16%	-12	-0.8
COC(=O)Cc1ccc(NC(=O)c2ccc3c(c2)C(=O)N(CC2CCCO2)C3=O)cc1 (centres undefined)
  2.7%	0.8%	-7	nt	18%	0	-0.4
COc1ccc(Nc2cc(C(=O)NCCCN(C)Cc3ccccc3)c3ccccc3n2)cc1OC
  3.8%	-0.9%	nt	nt	nt	2	0.1
Nc1ccc(C(=O)OCCc2ccccc2)cc1
  0.5%	-2.4%	?	nt	nt	4	0.6
CN(C(=O)c1cnc(N2CCN(c3ncccn3)CC2)c2ccccc12)c1ccc(Cl)cc1
  8.0%	0.1%	-20	0.8	56µM*	7	0.1

Source: PubChem BioAssay (National Center for Advancing Translational Sciences (NCATS))
